Hedgehog cleavage: Drosophila hedgehog isoform A inhibitors, primary screen, biochemical, plate reader, single concentration (AID 588832); 8,000 tested, under 10 active; inhibition, % at 30.3 µM; Biochemical plate reader assay, Hedgehog inhibition; stronger effect = higher value; in the data active = inhibition from about 57%;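 note: 0% = neutral control wells and 100% = positive control wells; cholesterol-driven self-cleavage of fly hedgehog protein by fluorescence polarization; read one hour after cholesterol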
* marks the source's active call; other numbers are inactive results. Not all compounds are listed (hit frequency here may not be typical).

O=c1ccc2cc3ccoc3c(O)c2o1
- Hedgehog cleavage: 3.5
C=C1C(=O)OC2C1CCC(C)C1(O)C=CC(=O)C21C (stereo unspecified)
- Hedgehog cleavage: 3.6
COc1cc(-c2ccc(N)c(OC)c2)ccc1N
- Hedgehog cleavage: 7.1
Cc1cc(C)n2c(Br)c(CN3CC4CC(C3)c3cccc(=O)n3C4)nc2n1 (stereo unspecified)
- Hedgehog cleavage: 5.2
Cc1cc(=O)oc2c(C)c(OCC(=O)N3C[C@H]4C[C@@H](C3)c3cccc(=O)n3C4)ccc12
- Hedgehog cleavage: 8.6
C/C=C/c1ccc2c(c1)OCO2
- Hedgehog cleavage: -5.4
CCc1nccc2c1[nH]c1ccccc12
- Hedgehog cleavage: 5.1
CC(=O)OC1=CC[C@H]2[C@@H]3CC[C@H]4C[C@H](OC(C)=O)[C@@H](OC(C)=O)C[C@]4(C)[C@H]3CC[C@]12C
- Hedgehog cleavage: 3.5
Oc1cc(Cl)c(Cl)c(Cl)c1
- Hedgehog cleavage: 8.9
COc1ccccc1NC(=O)N1C[C@@H]2C[C@@H](C1)c1cccc(=O)n1C2
- Hedgehog cleavage: 8.2

Another view of part of the listing above:
molecule	Hedgehog cleavage
CCc1nccc2c1[nH]c1ccccc12	5.1
CC(=O)OC1=CC[C@H]2[C@@H]3CC[C@H]4C[C@H](OC(C)=O)[C@@H](OC(C)=O)C[C@]4(C)[C@H]3CC[C@]12C	3.5
Oc1cc(Cl)c(Cl)c(Cl)c1	8.9
COc1ccccc1NC(=O)N1C[C@@H]2C[C@@H](C1)c1cccc(=O)n1C2	8.2

The main list resumes, repeating the 3 entries before the break.
CC(=O)OC1=CC[C@H]2[C@@H]3CC[C@H]4C[C@H](OC(C)=O)[C@@H](OC(C)=O)C[C@]4(C)[C@H]3CC[C@]12C
- Hedgehog cleavage: 3.5
Oc1cc(Cl)c(Cl)c(Cl)c1
- Hedgehog cleavage: 8.9
COc1ccccc1NC(=O)N1C[C@@H]2C[C@@H](C1)c1cccc(=O)n1C2
- Hedgehog cleavage: 8.2
CCSC(=O)N1CCCCCC1
- Hedgehog cleavage: 16.1
C[C@H]1CC[C@@H]2[C@@H](C)[C@H]3[C@H](C[C@H]4[C@@H]5CC=C6C[C@@H](O[C@@H]7O[C@H](CO)[C@H](O)[C@H](O[C@@H]8O[C@H](CO)[C@@H](O)[C@H](O)[C@H]8O)[C@H]7O[C@@H]7O[C@@H](C)[C@H](O)[C@@H](O)[C@H]7O)CC[C@]6(C)[C@H]5CC[C@]34C)N2C1
- Hedgehog cleavage: -7.0
O=C/C=C/c1ccccc1
- Hedgehog cleavage: 0.0
O=C1C2CC(CN3CCCCC23)C2CCCCN12 (stereo unspecified)
- Hedgehog cleavage: 8.6
N#CCCCCC#N
- Hedgehog cleavage: 1.7
Cc1cc(=O)oc2cc(OCC(=O)N3C[C@H]4C[C@@H](C3)c3cccc(=O)n3C4)c(Cl)cc12
- Hedgehog cleavage: 1.6
CC(C)c1ccc(NC(=O)CCNC(=O)N2C[C@H]3C[C@@H](C2)c2cccc(=O)n2C3)cc1
- Hedgehog cleavage: 7.2
COC1C(O)C(C)OC(OC2CCC3(C=O)C(CCC4C3CCC3(C)C(C5=CC(=O)OC5)CCC43O)C2)C1O (stereo unspecified)
- Hedgehog cleavage: 0.0
Cc1ccccc1[N+](=O)[O-]
- Hedgehog cleavage: 0.0
C[C@H](NC(=O)CCC(=O)N1C[C@H]2C[C@H](C1)c1cccc(=O)n1C2)c1ccccc1
- Hedgehog cleavage: 10.5

COc1cc(C(=O)NC(=S)N2C[C@H]3C[C@H](C2)c2cccc(=O)n2C3)cc(OC)c1OC
- Hedgehog cleavage: 4.9
CC(=O)O[C@@]12CO[C@@H]1C[C@H](O)[C@@]1(C)C(=O)[C@H](O)C3=C(C)[C@@H](O)C[C@@](O)([C@@H](OC(=O)c4ccccc4)C12)C3(C)C (stereo partly specified)
- Hedgehog cleavage: 5.4
COc1ccc(O)c2c(=O)c3c(OC)cc4c(c3oc12)C1C=COC1O4 (stereo unspecified)
- Hedgehog cleavage: 5.2
O=C(/C=C/c1ccccc1)NCCc1cnc[nH]1
- Hedgehog cleavage: 8.6
ClCCOCCCl
- Hedgehog cleavage: 0.0
CC/C=C/CC(=O)N[C@@H](c1ccccc1)[C@@H](O)C(=O)O[C@H]1C[C@@]2(O)[C@@H](OC(=O)c3ccccc3)C3[C@](C)(C(=O)[C@H](OC(C)=O)C(=C1C)C2(C)C)[C@@H](O)C[C@H]1OC[C@@]31OC(C)=O (stereo partly specified)
- Hedgehog cleavage: 6.9
O=C(/C=C/c1ccc(Cl)cc1)NC(=S)N1C[C@H]2C[C@H](C1)c1cccc(=O)n1C2
- Hedgehog cleavage: 0.1
COc1cc2c(cc1OC)CC[N+](C)=C2
- Hedgehog cleavage: 5.2
Cc1cc(OCC(=O)N2CCC(C(N)=O)CC2)c2c3c(c(=O)oc2c1)CCCC3
- Hedgehog cleavage: 0.0
O=C(O)c1cccc2nc3ccccc3nc12
- Hedgehog cleavage: 1.8

COc1cc2c(cc1OC)[C@@]13CCN4CC5=CCO[C@H]6CC(=O)N2[C@H]1[C@H]6[C@H]5C[C@H]43
- Hedgehog cleavage: 5.1
CC(C)[C@]12CC(=O)[C@H](C)[C@H]1C2
- Hedgehog cleavage: 12.5
O=C(Nc1ccc(Br)cc1)N1C[C@H]2C[C@@H](C1)c1cccc(=O)n1C2
- Hedgehog cleavage: 3.5
CC(=O)O[C@@H]1/C=C/[C@](C)(O)C[C@@H](C)C/C=C/[C@H]2[C@@H]3O[C@]3(C)[C@@H](C)[C@H]3[C@H](Cc4ccccc4)NC(=O)[C@@]312
- Hedgehog cleavage: 5.2
CN1CC2=CC(O)CC3Oc4c(O)ccc(c4[C@]23C)C1 (stereo partly specified)
- Hedgehog cleavage: 5.2
Cc1c(CC(=O)N2C[C@H]3C[C@@H](C2)c2cccc(=O)n2C3)c(=O)oc2c(C)c(O)ccc12
- Hedgehog cleavage: 1.7
CC(=O)OC[C@]12CCC(C)=C[C@H]1O[C@@H]1[C@H](O)[C@@H](OC(C)=O)[C@@]2(C)[C@]12CO2
- Hedgehog cleavage: 3.4
Cc1cc(-c2cc(C)c(N)c(C)c2)cc(C)c1N
- Hedgehog cleavage: 1.8
O=C(NC(=S)N1C[C@H]2C[C@H](C1)c1cccc(=O)n1C2)c1ccc(Cl)cc1Cl
- Hedgehog cleavage: 8.6
COc1ccc(CC2NCC(O)C2OC(C)=O)cc1 (stereo unspecified)
- Hedgehog cleavage: 3.6

The list goes on; it opens with the 2 that closed the last part.
O=C(NC(=S)N1C[C@H]2C[C@H](C1)c1cccc(=O)n1C2)c1ccc(Cl)cc1Cl
- Hedgehog cleavage: 8.6
COc1ccc(CC2NCC(O)C2OC(C)=O)cc1 (stereo unspecified)
- Hedgehog cleavage: 3.6
CCCCCC[N+](=O)[O-]
- Hedgehog cleavage: 8.9
COc1cc(O)c(C(=O)O)c(-c2cc(O)c(O)cc2C)c1
- Hedgehog cleavage: 3.6
CCOC(=O)c1ccc(NC(=O)N2C[C@@H]3C[C@@H](C2)c2cccc(=O)n2C3)cc1
- Hedgehog cleavage: 1.7
C=CC(=O)NCNC(=O)C=C
- Hedgehog cleavage: 1.8
O=C(O)C(Br)CBr (stereo unspecified)
- Hedgehog cleavage: 3.6
CC(=O)OC1(C)CC(C)C(=O)C(C(O)CC2CC(=O)NC(=O)C2)C1 (stereo unspecified)
- Hedgehog cleavage: 3.6
BrCC(Br)C1CCC(Br)C(Br)C1 (stereo unspecified)
- Hedgehog cleavage: 8.9
COc1ccc(NC(=O)N2C[C@@H]3C[C@@H](C2)c2cccc(=O)n2C3)cc1
- Hedgehog cleavage: 0.1
CC1=C(C(=O)O)N2C(=O)[C@@H](NC(=O)CCCC(=O)O)[C@H]2SC1
- Hedgehog cleavage: 7.0
COc1c2c(cc3c1OCO3)CC[N+](C)=C2
- Hedgehog cleavage: 10.3

3 entries from above, set out differently.
SMILES,Hedgehog cleavage
CC(=O)OC1(C)CC(C)C(=O)C(C(O)CC2CC(=O)NC(=O)C2)C1 (stereo unspecified),3.6
BrCC(Br)C1CCC(Br)C(Br)C1 (stereo unspecified),8.9
COc1ccc(NC(=O)N2C[C@@H]3C[C@@H](C2)c2cccc(=O)n2C3)cc1,0.1

Next compounds.
Cc1cc(OCC(=O)N[C@@H](Cc2ccccc2)C(=O)O)c2c3c(c(=O)oc2c1)CCCC3
- Hedgehog cleavage: 3.3
CCC/C=N/O
- Hedgehog cleavage: -3.6
O=C1C2(Cl)C3(Cl)C4(Cl)C(Cl)(Cl)C5(Cl)C3(Cl)C1(Cl)C5(Cl)C24Cl (stereo unspecified)
- Hedgehog cleavage: 5.4
CCCCC(C)C(OC(=O)CC(CC(=O)O)C(=O)O)C(CC(C)CC(O)CCCCC(O)CC(O)C(C)N)OC(=O)CC(CC(=O)O)C(=O)O (stereo unspecified)
- Hedgehog cleavage: 8.2
COc1ccc(CNC(=O)CCC(=O)N2C[C@H]3C[C@H](C2)c2cccc(=O)n2C3)cc1
- Hedgehog cleavage: 8.6
CN1CC=C(c2c[nH]c3ccccc23)CC1
- Hedgehog cleavage: 5.2
CCN(CC)CCO
- Hedgehog cleavage: 0.0
Oc1cccc2cccnc12
- Hedgehog cleavage: 5.2
Cc1cc(OCC(=O)N[C@H](C(=O)O)c2ccccc2)c2c3c(c(=O)oc2c1)CCC3
- Hedgehog cleavage: -1.8
O=C(Nc1cccc(Cl)c1)N1C[C@H]2C[C@@H](C1)c1cccc(=O)n1C2
- Hedgehog cleavage: 5.2

CCC(C)(C)c1ccc(O)cc1
- Hedgehog cleavage: 0.0
Nc1ncc([N+](=O)[O-])s1
- Hedgehog cleavage: 1.8
COc1cccc2c1cc([N+](=O)[O-])c1c(C(=O)O)cc3c(c12)OCO3
- Hedgehog cleavage: 6.5
CC(C)(O)C(=O)Nc1ccc([N+](=O)[O-])c(C(F)(F)F)c1
- Hedgehog cleavage: 5.4
O=C(c1ccccc1F)N1C[C@H]2C[C@@H](C1)c1cccc(=O)n1C2
- Hedgehog cleavage: 6.9
O=[N+]([O-])CCO
- Hedgehog cleavage: 8.9
CCC(=O)N1N=C2C3CCN(CC3)C2C1c1ccc(C)cc1 (stereo unspecified)
- Hedgehog cleavage: 0.0
CCC(C)C(=O)N[C@@H](c1ccccc1)[C@@H](O)C(=O)O[C@H]1C[C@@]2(O)[C@@H](OC(=O)c3ccccc3)C3[C@](C)(C(=O)[C@H](OC(C)=O)C(=C1C)C2(C)C)[C@@H](O)C[C@H]1OC[C@@]31OC(C)=O (stereo partly specified)
- Hedgehog cleavage: 5.1
CC[C@H]1CC2CN3CCc4c([nH]c5cc(OC)ccc45)[C@](C(=O)OC)(C2)[C@H]13
- Hedgehog cleavage: 6.9
COc1ccc2[nH]c(C)c(CCN3CCC(=O)C(C)C3C)c2c1 (stereo unspecified)
- Hedgehog cleavage: 0.0

Cc1ccc2c(c1)C1CN(C)CCC1N2C(=O)Cn1nnc(-c2ccccc2F)n1 (stereo unspecified)
- Hedgehog cleavage: 1.7
COc1ccc(-c2cc(=O)c3c(OC)c(OC)c(OC)cc3o2)cc1
- Hedgehog cleavage: 5.2
Cc1cc(OCC(=O)N2CCC(C(=O)O)CC2)c2c3c(c(=O)oc2c1)CCCC3
- Hedgehog cleavage: 10.3
CC(C)[C@H]1C(=O)O[C@H](C(C)C)C(=O)N(C)[C@@H](C(C)C)C(=O)O[C@H](C(C)C)C(=O)N(C)[C@@H](C(C)C)C(=O)O[C@H](C(C)C)C(=O)N1C
- Hedgehog cleavage: 4.9
Cn1cc(C(=O)c2ccccc2)c2ccccc21
- Hedgehog cleavage: 8.7
CC(Cc1ccccc1)NC=O (stereo unspecified)
- Hedgehog cleavage: 8.6
Oc1cccc2nc3ccccc3nc12
- Hedgehog cleavage: -0.1
O=C(CN1CC(c2ccccc2)CC1=O)Nc1ccccc1 (stereo unspecified)
- Hedgehog cleavage: 8.3
Brc1ccc(Oc2ccc(Br)cc2Br)c(Br)c1
- Hedgehog cleavage: 5.4
O=NN1CCCCC1
- Hedgehog cleavage: 1.8

Cc1ccc2c(c1N)C(=O)c1ccccc1C2=O
- Hedgehog cleavage: 1.8
CC1=C2[C@H]3OC(=O)[C@@H](C)[C@@H]3CC[C@@]2(C)C=CC1=O
- Hedgehog cleavage: 8.2
CN(C)C(=O)Oc1ccc(-c2nnco2)cc1
- Hedgehog cleavage: 10.0
O=C(CCC(=O)N1C[C@H]2C[C@@H](C1)c1cccc(=O)n1C2)NCc1ccccc1C(F)(F)F
- Hedgehog cleavage: 3.6

Source: PubChem BioAssay
